VDR inh – Inhibitors of the vitamin D receptor (VDR): qHTS | Vitamin D3 receptor (Homo sapiens), P11473 | AID 504847, 2011 | Potency, µM, for inactives: max response, negative = inhibition, most hits filed as inhibitors | 400,000 compounds, 0.93% hits | VDR-SRC2-3 peptide fluorescence polarization, 2 h; active = well fitted inhibition curve with a large enough effect; inconclusive = small, poorly fitted or top-dose-only effect, or another doubt; inactive = no such curve, though single readings can be large or run the other way; note: series mostly up to about 120 µM
Target sequence (P11473 whole entry, looked up): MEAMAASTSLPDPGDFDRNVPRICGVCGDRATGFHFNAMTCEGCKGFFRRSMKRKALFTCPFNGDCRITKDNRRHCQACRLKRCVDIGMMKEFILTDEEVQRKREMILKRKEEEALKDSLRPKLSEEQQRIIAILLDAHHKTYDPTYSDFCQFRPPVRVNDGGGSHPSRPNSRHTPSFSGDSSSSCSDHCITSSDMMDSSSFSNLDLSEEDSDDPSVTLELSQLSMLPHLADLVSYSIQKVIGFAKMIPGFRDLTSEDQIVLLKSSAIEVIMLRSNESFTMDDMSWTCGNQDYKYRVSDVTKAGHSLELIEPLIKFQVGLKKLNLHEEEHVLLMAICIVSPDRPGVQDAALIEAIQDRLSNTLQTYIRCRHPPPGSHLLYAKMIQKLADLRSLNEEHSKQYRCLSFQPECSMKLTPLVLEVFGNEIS
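Two reagent solutions held at 4 deg C in the dark were dispensed, compounds pinned at 23 nl, and the mixture incubated 2 h at room temperature. Read-out: fluorescence polarization of VDR–SRC2-3 peptide binding.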
The depositor's hits bear a star; ? = inconclusive. % is set by controls: 0 for no effect and ±100 for the full control effect; potency is the fitted concentration of half-maximal effect.

canonical_smiles,VDR inh
COC(=O)c1ccccc1NC(=O)c1ccccc1N(C)S(=O)(=O)c1ccccc1,-21%
CC1CCN(c2c(NCC3CCC(C(=O)N4CCCCC4)CC3)c(=O)c2=O)CC1 (stereo not drawn),-13%
O=C(COC(=O)c1ccc(OC(F)(F)F)cc1)NCCN1C(=O)CSC1=O,4%
COc1ccccc1CCNC(=O)CSc1nc(=O)[nH]c2c1CCC2,-1%
O=C(NC(=S)NNC(=O)c1ccccc1O)c1ccc(F)cc1,19%
O=C1N=C(N2CCOCC2)SC1=Cc1ccco1,-11%
CCc1ccc(-n2c(Cn3nc(C(F)(F)F)cc3C)n[nH]c2=S)cc1,-12%
Cc1cc(C(=O)CSc2nnc(-c3cccc(F)c3)n2N)c(C)n1Cc1ccc2c(c1)OCO2,1%
NCCCC(=O)N1c2ccccc2Sc2ccc(Cl)cc21,-10%
CN(c1ccccc1)S(=O)(=O)c1ccc(C(=O)Nc2nnc(C3CC3)o2)cc1,11%
O=C(CCl)N1c2ccccc2Oc2ccc3ccccc3c21,20µM*
O=C(O)CCNc1cc(N2CCN(C(=O)c3ccco3)CC2)c2noc3c2c1C(=O)c1ccccc1-3,?
CCC1=NC(c2ccccc2OC)N(O)C1(C)C (stereo not drawn),-5%
COc1ccccc1NC(=O)CSc1c2c(nc3ccccc13)CCC2,?
CCc1ccc2ncc(S(=O)(=O)c3ccc(Cl)cc3)c(N3CCN(CC)CC3)c2c1,-13%
COCc1cc(C)nc2sc(C(=O)N3CCCC3)c(N)c12,3%
COc1ccccc1NS(=O)(=O)c1ccc(C)c(C(=O)NC2CCN(Cc3ccccc3)CC2)c1,5%
COc1ccccc1CNC(=O)CNC(=O)c1cn(-c2ccccc2OC)c(=O)c2ccccc12,-13%
O=C(COC(=O)c1cc(S(=O)(=O)N2CCCC2)ccc1O)Nc1ccc(S(=O)(=O)N2CCOCC2)cc1,-5%
CCCn1nc(NC(=O)c2cccs2)c2cc3ccc(C)cc3nc21,4%
CC(=O)NNS(=O)(=O)c1ccc(-c2cc(C(F)(F)F)n(C)n2)s1,-12%
Nc1ccc(-c2nc3cc(N)ccc3s2)cc1,-5%
COc1ccc(C(=O)NCc2nnc(SC)n2C2CCCCC2)cc1,3%
Cc1sc2ncnc(SCC(=O)Nc3ccc(S(=O)(=O)N4CCOCC4)cc3)c2c1C,14%
O=C(NCCc1ccc(Cl)cc1)c1ccc(CSCc2ccc(Cl)cc2)o1,2%
COc1cccc(/C=C2\SC(=O)N(CC(=O)NCCCn3ccnc3)C2=O)c1,10%
O=C(c1ccc2c(c1)OCO2)N1CCC2(CC1)Oc1ccc(Cl)cc1C(=O)C21CC(c2cccnc2)=NO1 (stereo not drawn),-5%
COc1ccc(NC(=O)C(C)NS(=O)(=O)c2ccc(NC(C)=O)cc2)cc1Cl (stereo not drawn),-14%
COc1ccc(-c2nn(-c3ccccc3)cc2/C=N/NC(=S)NC(C)C)cc1OC,-1%
COC(=O)c1ccc(OC(=O)C23CCC(C)(C(=O)O2)C3(C)C)cc1 (stereo not drawn),7%
COc1ccc(NC(=O)C2=C(C)Nc3nc(SCc4ccc(Cl)cc4)nn3C2c2cccc(OC)c2OC)cc1 (stereo not drawn),6%
CC(=O)NCCC(=O)Nc1cc(S(=O)(=O)N2CCOCC2)ccc1Oc1ccc(F)cc1,-9%
CCc1ccc(C2NC(=O)c3[nH]nc(-c4cccc(OC)c4)c32)cc1 (stereo not drawn),-18%
COc1ccc(/C=C2\SC(=S)N(CC(=O)NNC(=O)c3ccncc3)C2=O)cc1,1%
COc1ccccc1NC(=O)C1CCCN(S(=O)(=O)c2c(C)noc2C)C1 (stereo not drawn),-20%
O=C(NC(=Nc1nc2ccccc2o1)NC(=O)c1ccccc1)c1ccccc1,-8%
CCN1CCc2c(sc(NC(=O)Cc3ccccc3)c2C(N)=O)C1,0%
COc1ccc(Cl)cc1NC(=O)Cn1nc(C(F)(F)F)c2c1CCC2,-11%
CCn1c(=O)n(CC(=O)NCc2ccccc2OC)c(=O)c2ccccc21,-14%
Cc1ccnc(SCC(=O)N2CCc3ccccc3C2)n1,2%
CCCNc1c(NC(=O)c2ccc(OCCC)cc2)c(=O)oc2ccccc12,18%
CCc1ccc2nc(NC(=O)CSCc3c(C)noc3C)sc2c1,2%
CC(C)N(C(=O)[C@H]1C[C@H](CC(=O)NCC23CC4CC(CC(C4)C2)C3)C(=O)N2CCc3c([nH]c4ccc(Cl)cc34)[C@]12C)C(C)C,-13%
C/C(=N\Nc1ccc([N+](=O)[O-])cc1)c1ccco1,-13%
O=C(Nc1cccn(Cc2cccc(F)c2)c1=O)NC1CCCCC1,-5%
COc1ccccc1N(Cc1cc(=O)[nH]c2ccccc12)C(=O)c1cccc([N+](=O)[O-])c1,?
O=C(CN1C(=O)NC2(CCCCCCC2)C1=O)N1CCc2ccccc2C1,8%
CC(=O)NNc1cc(=O)c2c(=O)n(C)c(=O)n(C)c2[nH]1,-4%
Cc1cc(Br)cc2c(C(=O)Nc3c(C)n(C)n(-c4ccccc4)c3=O)cc(-c3cccs3)nc12,-3%
CNC(=S)NCCc1c[nH]c2ccc(OC)cc12,-4%

Further structures.
canonical_smiles,VDR inh
Cc1ncc(CO)c(/C=N/NC(=S)Nc2ccc(C(C)C)cc2)c1O,?
O=C(N/C=C\n1cnc2cc(C(F)(F)F)ccc21)c1ccc([N+](=O)[O-])cc1,1%
COCCNC(=O)c1cn(CCOC)c(=O)c2c1c1ccccc1n2C,16%
O=C(Cn1ccc2cc(S(=O)(=O)N3CCCC3)ccc21)NCc1ccc(Cl)cc1,8%
Cc1ccn2cc(CSc3ccccc3)nc2c1,10%
COc1cc(C(=O)NCCC(=O)NCCc2ccc(Cl)cc2)cc(OC)c1OC,1%
Cc1nc(S/C(C(=O)O)=C2/C(=O)Nc3ccccc32)n[nH]1,-3%
O=C(CN1CCN(Cc2ccc(Cl)cc2)CC1)N/N=C/c1ccccc1F,-9%
COc1ccc(CNC(=O)CN2C(=O)c3ccccc3S2(=O)=O)cc1,-27%
CCN(CC)C(=O)[C@H]1C[C@H](CC(=O)NCCN2CCOCC2)C(=O)N2CCc3c([nH]c4cc(CCC(=O)N(C)C)ccc34)[C@]12C,0%

Some values from the list:
Entry for `Cc1ccn2cc(CSc3ccccc3)nc2c1` in VDR inh: 10%
Entry for `COc1ccc(CNC(=O)CN2C(=O)c3ccccc3S2(=O)=O)cc1` in VDR inh: -27%
Entry for `COc1cc(C(=O)NCCC(=O)NCCc2ccc(Cl)cc2)cc(OC)c1OC` in VDR inh: 1%
Entry for `COCCNC(=O)c1cn(CCOC)c(=O)c2c1c1ccccc1n2C` in VDR inh: 16%

(next part)
canonical_smiles,VDR inh
S=C1NC(c2ccccc2)=NCN1c1ccc(Cl)cc1,2%
NS(=O)(=O)c1cccc(NC(=O)COC(=O)/C(=C/c2cccs2)c2cccs2)c1,-8%
Cc1cccc(/C=C2/Sc3ccc(C(=O)N4CCOCC4)cc3NC2=O)c1,13%
COc1cc(NS(=O)(=O)c2ccc(NC(C)=O)cc2)cc(OC)c1,0%
O=C(CNC(=O)c1ccc(Cl)cc1)Nc1ccc(S(=O)(=O)Nc2ncccn2)cc1,5%
CCn1c(CN2CCCCC2)nc2cc(NC(=O)COc3ccccc3C(C)(C)C)ccc21,13%
CCN(CC)C(=O)Cn1ncc2c1-c1ccccc1OC2,-13%
CN(C)S(=O)(=O)Oc1ccc(Cl)cc1C(=O)Nc1ccc(F)cc1F,5%
CCc1ccccc1NC(=O)c1onc(C)c1Cl,5%
CCN1CCN(Cc2c(C)[nH]c3ccc(C(=O)OC)cc3c2=O)CC1,13%
COc1ccc(C2/C(=C(/O)c3ccc(OC(C)C)cc3)C(=O)C(=O)N2CCCN2CCOCC2)cc1 (stereo not drawn),-15%
Cc1ccc(F)cc1NC(=O)N1CCCN(C(=O)OC(C)(C)C)CC1,2%
COc1ccc(Cl)cc1NC(=O)C1CCCN(S(=O)(=O)c2cccc3nonc23)C1 (stereo not drawn),-9%
CSc1nc(=O)n(-c2ccccc2)c(C)c1C(C)=O,-4%
Cc1ccc(NC(=O)Nc2ncccc2C)cc1,12%
Cc1ccc(O)c(CO)n1,-16%
CN(C)c1ccc(/C=N\NC(=O)c2csnn2)cc1,-12%
O=C(Cc1ccc(Cl)cc1)Oc1cccc2cccnc12,6%
C[C@@H]1C=C(C(=O)NCc2nc3ccccc3[nH]2)O[C@H](OCc2ccc(CO)cc2)C1,-22%
CNC(=S)NNC(=O)c1noc(C)c1C(=O)N1CCN(C(c2ccccc2)c2ccccc2)CC1,12%

2 of these compounds, reformatted.
C[C@@H]1C=C(C(=O)NCc2nc3ccccc3[nH]2)O[C@H](OCc2ccc(CO)cc2)C1
  VDR inh = -22%
O=C(Cc1ccc(Cl)cc1)Oc1cccc2cccnc12
  VDR inh = 6%

Next part
canonical_smiles,VDR inh
O=C(COc1ccccc1)N1N=C(c2cccnc2)CC1(O)C(F)(F)F (stereo not drawn),-21%
CC1CCCC(C)N1C(=O)c1cc(-c2ccc(Cl)c(Cl)c2)on1 (stereo not drawn),-16%
O=C(NCc1cccs1)[C@@H]1CSC2c3ccccc3C(=O)N21 (stereo partly drawn),-5%
CC1(C)c2[nH]c3ccccc3c2C[C@H]2C(=O)N(Cc3ccc(F)cc3)C(=O)N21,-5%
O=C(Nc1ccccc1C(=O)N1CCOCC1)c1ccc(Br)cc1,-8%
COc1cccc(Cn2c(C)c(CNCc3ccccc3Cl)c(C(=O)O)c2C)c1,4%
Cc1ccc(S(=O)(=O)NCc2csc(C)n2)cc1,-4%
Cn1c(=O)n(C)c2cc(S(=O)(=O)N3CCCc4ccccc43)ccc21,-1%
COC(=O)C1=C(C)n2nnnc2NC1c1cc2ccccc2o1 (stereo not drawn),12%
COc1cccc(NC(=O)CN(C)C(=O)c2ccc(OCc3ccccc3)c(OC)c2)c1,-10%

In the list so far, these have a nitro group on carbon:
canonical_smiles,VDR inh
C/C(=N\Nc1ccc([N+](=O)[O-])cc1)c1ccco1,-13%
COc1ccccc1N(Cc1cc(=O)[nH]c2ccccc12)C(=O)c1cccc([N+](=O)[O-])c1,?
O=C(N/C=C\n1cnc2cc(C(F)(F)F)ccc21)c1ccc([N+](=O)[O-])cc1,1%

The results go on.
canonical_smiles,VDR inh
CCOc1ccccc1CNC(=O)CSc1n[nH]c(-c2ccccc2)n1,12%
Fc1cccc2ncnc(OCc3ccccc3)c12,-2%
COc1ccccc1NC(=O)Cn1c(=O)n(CC2CCC(C(=O)NCCc3ccccc3)CC2)c(=O)c2ccccc21 (stereo not drawn),13%
COc1ccc(CCNCc2ccc(OCC(=O)N3CCCCC3)c(OC)c2)cc1OC,4%
CCCc1nc(SCC(=O)c2ccc(OC)cc2)c2ccccc2n1,-2%
O=C(CN1CCCc2ccccc21)NCc1ccccc1Cl,4%
O=C(Cc1ccc2c(c1)CCCC2)Nc1ccccc1Br,-22%
O=C(OCN1C(=O)c2ccccc2C1=O)/C(=C\c1ccco1)NC(=O)c1ccccc1,-11%
O=C(c1ccco1)N1CCN(C(=O)c2cc3c(=O)oc4ccccc4c3s2)CC1,-8%
CC(=O)Nc1ccc(S(=O)(=O)Nc2ccc(C)c([N+](=O)[O-])c2)cc1,-5%
CN(CC1CCCN(CCc2cccc(C(F)(F)F)c2)C1)C(=O)c1ccc2nc[nH]c2c1 (stereo not drawn),-3%
CCCCc1nc2ccccc2c(NC(=O)CN(CC)CC)c1CCC,6%
O=C(COC(=O)C12CC3CC(CC(C3)C1)C2)Nc1ccc([N+](=O)[O-])cc1Br,-13%
CC12CCC(C(=O)Nc3ccc(SC(F)F)cc3)(CC1=O)C2(C)C (stereo not drawn),10%
Cc1ccc(NC(=O)c2ncn(CCCNCCCN(C)C)n2)cc1C,-4%
CC(C)(C)c1cc(NC(=O)Nc2ccccc2)no1,-7%
O=C(Nc1cccn(Cc2c(Cl)cccc2Cl)c1=O)c1ccc(Cl)cc1Cl,-13%
Cc1ccc(CN2C(=O)CNC2=S)cc1,-11%
COC(=O)COc1cccc(NC(=O)c2cc(OC)cc(OC)c2)c1,-12%
CC(C)c1cnc2c(c1SCC(=O)c1ccc(Cl)cc1)c(=O)n(C)c(=O)n2C,13%
CCCCCCn1c(SCCOC)nc2c1c(=O)[nH]c(=O)n2C,-1%
O=C(Nc1cccc(-c2csc(Nc3cccc(C(F)(F)F)c3)n2)c1)c1cc([N+](=O)[O-])cc(C(F)(F)F)c1,-6%
COc1cc(OC)c(Nc2nc3ccccc3nc2-n2nc(C)cc2C)cc1Cl,9%
Nc1nc(N)c2cc(Sc3ccc4ccccc4c3)ccc2n1,13%
Cc1ccccc1-c1nc2cc(NC(=O)c3cccc(OCCC(C)C)c3)ccc2o1,-8%
CC(=O)Oc1ccc(-c2ccc(C(=O)OCC(=O)N(C)CC(=O)Nc3ccccc3Cl)cc2)cc1,-6%
COc1ccc(N(CC(=O)Nc2ccc(S(=O)(=O)N3CCCC3)cc2)S(C)(=O)=O)cc1OC,9%
CC1(C)Cc2cccc(OCC(=O)N3CCN(c4ccccc4F)CC3)c2O1,-9%
CCN1C(=O)[C@H]2[C@@H](c3ccc(-c4ccc(F)cc4)c(OC)c3)N[C@@](C)(C(=O)OC)[C@H]2C1=O,?
C=CCNC(=O)C1CC(=O)N(c2ccc(OCC(=O)Nc3ccc(Cl)c(C(F)(F)F)c3)cc2)C1 (stereo not drawn),0%
COc1ccc(OC)c(CC(NC(C)=O)C(=O)NC2CCN(c3nc(OC)nc(OC)n3)CC2)c1 (stereo not drawn),-13%
Cc1cc(C)c(S(=O)(=O)NCCSCc2ccco2)c(C)c1,?

These rows are one share of the data; rates above refer to the full screens.
